# Compound activity from PubChem BioAssay.
# T cruzi inh: inhibitors of intracellular T. cruzi growth, primary screen, luminescence, NIH3T3 host cells; 300,000 tested, 1.4% active; T. cruzi beta-gal in NIH3T3, 90 h; AID 1885, 2009; inhibition, % (test concentration not listed);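 active = mean inhibition across valid replicates above about 55%, limit read from the data; inconclusive = mean below that limit but half or more replicates reach it; inactive = mean below it, under half of replicates reach it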;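 also: signal also drops with host cell toxicity which is not excluded here; 0% = plate median of DMSO wells and 100% = zero luminescence signal; higher percent means less beta-gal luminescence so fewer parasites; stock transfer was 50 nL into about 50 µL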
# A1 inh: caspase 3/7 activation in MEF A1-2A-BIM cells, primary screen, A1 inhibitor project, cell-based, luminescence, HTS; Caspase-Glo 3/7 luminescence, 3 h; percent of clofoctol response, vehicle zero; 330,000 tested, 0.066% active; caspase activation, % (test concentration not listed);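 active = over half of replicate activation scores above 10%, or exactly half above 10 with the replicate mean above 10; inconclusive = replicate mean below 10 yet half the replicates above 10; inactive = over half of replicates below 10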;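 also: wells of about 30 µL received 50 nL stock; many hits fall short of the cut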
# Beta cell apopt: inhibitors of cytokine-induced beta cell apoptosis, primary screen, luminescence. INS-1E cytokine-induced death, ATP luminescence, 48 h; percent of positive-control rescue, neutral wells zero. protection from apoptosis, % (test concentration not listed). 300,000 tested, 0.8% active;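 active = all replicates at 75% or more, or half of them and the mean; inconclusive = half reach 75% but not the mean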;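 also: 0% = cytokine-treated negative control wells and 100% = positive control rescue; higher means more ATP so stronger rescue from cytokine killing; wells of about 40 µL received 100 nL stock; the first replicate is given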
# Numbers without * were called inactive; ? = inconclusive; nt = not tested or not shown. A portion of the library (hit frequency here may not be typical).
# Each structure is followed by: T cruzi inh, A1 inh, Beta cell apopt
> Cc1cc(/C=N/n2cnnc2)c(C)n1-c1ccc2c(c1)OCO2
→ 40.9, -0.6, nt
> CCc1cccc2c(/C=N/NC(=O)c3cccc(S(=O)(=O)Nc4ccccc4Cl)c3)c[nH]c12
→ -1.5, 0.7, nt
> COc1ccc(/C=N\NS(=O)(=O)c2ccc(Br)cc2)cc1COc1ccccc1[N+](=O)[O-]
→ 37.9, 1.1, nt
> Cc1ccc(N/N=C/c2ccc3c(c2)OCCO3)cc1Cl
→ 11.4, 0.0, nt
> COc1ccc2nc(NC(=O)/C=C/c3ccc4c(c3)OCO4)sc2c1
→ -19.3, -1.0, nt
> CC(C)=C(NC(=O)c1ccccc1)C(=O)N/N=C(\C)c1ccccc1O
→ -13.3, 0.7, nt
> CCOC(=O)NC(=O)/C(C#N)=N\Nc1ccc(Cl)cc1
→ 5.0, 0.4, nt
> CC(C)[C@H](NC(=O)OCc1ccccc1)C(=O)OCC(=O)Nc1c(F)cccc1F
→ -8.4, 0.3, nt
> COc1ccc(NC(=O)C(=O)N/N=C\c2ccc(CNC(=O)C(=O)Nc3ccc(C)c(C)c3)o2)c(OC)c1
→ -18.9, 23.6*, nt
> CCn1c2ccccc2c2cc(/C=N/n3c(C)nnc3C)ccc21
→ 11.5, 0.6, nt
> O=C(N/N=C/c1ccc(OC(=O)c2ccccc2)cc1)c1ccc(CN2CCOCC2)cc1
→ -4.0, 1.2, nt
> CC/C(=N\NC(=O)C(N)=O)c1ccccc1O
→ 6.1, 1.5, nt
> CN(C)c1ccc(/C=N/NC(=S)NCc2ccccc2)cc1
→ 21.9, -0.5, nt
> CCOC(=O)C(CSCC(=O)c1ccc(Br)cc1)NC(=O)OC(C)(C)C (centres undefined)
→ -7.5, -0.4, nt
> O=C(Nc1ccccc1)O/N=C1\CCCCC1c1ccc([N+](=O)[O-])cc1[N+](=O)[O-] (centres undefined)
→ 40.1, -0.1, nt
> C=CCNC(=S)N/N=C(\C)c1cc(OC)c(OC)c(OC)c1
→ -5.3, 0.3, nt
> Cc1ncc(CO)c(/C=N/NC(=S)Nc2ccc(F)cc2)c1O
→ 21.7, -0.1, nt
> CCOC(=O)c1ccc(NC(=S)Nc2ccccc2N)cc1
→ 9.6, -0.1, nt
> NC(=S)N/N=C/c1c[nH]c2ccc(OCc3ccccc3)cc12
→ 45.4, 1.3, nt
> Cc1nc2sc3c(c2c(=O)n1/N=C/c1ccco1)CCCC3
→ 3.4, -0.2, nt
> O=c1cnn(-c2ccc(Cl)cc2Cl)c(-c2ccccc2)c1
→ -9.3, 0.3, nt
> CC(C)n1cc(/C=N/Nc2ccc(Cl)c(C(=O)O)c2)c2ccccc21
→ -9.7, 0.9, nt
> CC1=C(C#N)c2nc(N)c(C#N)c(C)c2/C1=C\c1ccc(C)cc1
→ 24.1, -0.8, nt
> Cc1cc(NS(=O)(=O)c2ccc(NC(=O)CSc3nnc(-c4ccco4)n3N)cc2)nc(C)n1
→ -3.9, 0.7, nt
> CC(C)=CCC/C(C)=C/C=N/NC(=O)c1cccc([N+](=O)[O-])c1
→ 3.6, 0.4, nt
> N#CCC(=O)N/N=C/c1ccc(OS(=O)(=O)c2ccccc2)cc1
→ -18.0, nt, -3.6
> O=c1c2ccc(Cl)cc2[nH]c(=S)n1Cc1cccnc1
→ 4.3, nt, 3.4
> Nc1c(S(=O)(=O)c2ccccc2)c2nc3ccccc3nc2n1/N=C/c1ccco1
→ 21.8, nt, 12.9
> CC1(C)C(c2cccs2)=[N+]([O-])C2(CCCCC/C2=N\O)N1O (centres undefined)
→ -26.9, nt, -3.1
> C#CCOCCOCCOCCNc1nc(N2CCN(C(=O)CCCCCCCCCCNC(=O)[C@H]([C@@H](C)CC)n3cc(CCCCN=C(N)N)nn3)CC2)nc(N2CCN(C(=O)CCCCCCCCCCNC(=O)[C@H](CCCCN)n3cc(C)nn3)CC2)n1
→ nt, -0.6, 98.0*
> CC(C)[C@]1(c2ccc(Cl)cc2)ON(c2ccccc2C(F)(F)F)C1=O
→ nt, 0.5, 2.0
> Cc1ccc2c(c1)-n1c(nc3cc(Cl)ccc3c1=O)C(Cc1ccccc1)NC2=O (centres undefined)
→ nt, 0.8, -1.3
> CC(=O)OC[C@]12CC[C@H]3[C@@](C)(CC[C@H]4C(C)(C)CCC[C@]34C)[C@@H]1C[C@H](C1=CC(=O)O[C@@H]1OC(C)=O)O2
→ nt, 0.0, 2.0
> FC(F)(F)c1nc2ccccc2nc1N/N=C/c1c(Cl)cccc1Cl
→ nt, -0.5, 4.7
> Cn1c(SCC(=O)N/N=C/c2cccs2)nc2ccccc21
→ nt, 1.4, -5.6
> Cc1ccc(S(=O)(=O)/N=C2/C=C(Sc3ncn[nH]3)C(=O)c3ccccc32)cc1
→ nt, -2.8, 97.8*
> COc1cccc(/C=N/n2nnc3c(cnn3-c3ccccc3)c2=O)c1
→ nt, -0.2, 0.6
> CN(C)c1ccc(/C=N/NC(=O)CN(c2cccc(Cl)c2)S(C)(=O)=O)cc1Br
→ nt, 0.3, 2.9
> O=C(COC(=O)c1ccncc1)Nc1cc(Cl)c(Cl)cc1Cl
→ nt, 0.4, -7.2
> CCOC(=O)C(C)C(C)=O (centres undefined)
→ nt, 0.2, -3.6
> COC(=O)CSc1ncnc2c1sc1nc(-c3ccco3)c3c(c12)CC(C)(C)OC3
→ nt, -0.1, 0.6
> C#CCOCCOCCOCCNc1nc(N2CCN(C(=O)CCCCCCCCCCNC(=O)[C@H]([C@@H](C)CC)n3cc(CCCCN=C(N)N)nn3)CC2)nc(N2CCN(C(=O)CCCCCCCCCCNC(=O)[C@H](CCCCN)n3cc(C[C@@H](C)CC)nn3)CC2)n1
→ nt, -0.1, 98.3*
> O=C1OC2(c3ccccc31)c1cc(I)c(O)c(I)c1Oc1c2cc(I)c(O)c1I
→ nt, 0.1, 27.4
> O=C(CN(Cc1ccc(Cl)c(Cl)c1)S(=O)(=O)c1ccccc1)N/N=C\c1ccc2c(c1)OCO2
→ nt, 0.5, 10.7
> COC(=O)C1=C(C)N(Cc2ccccc2)C(=NCc2cccc(Cl)c2)N[C@H]1c1ccccc1
→ nt, 0.9, 9.5
> Oc1c(Br)cc(Br)cc1/C=N/N1CCN(Cc2ccccc2)CC1
→ nt, -0.3, -2.3
> CCOC(=O)c1c(C)[nH]c(C(=O)OC/C(O)=C(\C#N)c2nc3ccccc3[nH]2)c1C
→ nt, 0.0, 7.2
> O=C(N/N=C/c1c[nH]c2ccccc12)c1ccn(Cc2ccc(Cl)cc2)n1
→ nt, 0.2, 7.4
> C#CCOCCOCCOCCNc1nc(N2CCN(C(=O)CCCCCCCCCCNC(=O)[C@H]([C@@H](C)CC)n3cc(CCCCN=C(N)N)nn3)CC2)nc(N2CCN(C(=O)CCCCCCCCCCNC(=O)[C@H](CCCN=C(N)N)n3cc(C[C@@H](C)CC)nn3)CC2)n1
→ nt, -0.5, 98.2*
> Cc1ccccc1N(CC(=O)N/N=C/c1cc(C)n(-c2ccccc2C)c1C)S(C)(=O)=O
→ nt, 0.5, -0.4
> Cc1cc(C)nc(SCC(=O)NCc2ccco2)n1
→ nt, 0.1, -3.3
> COc1ccc(C2C=C(c3cccs3)Nc3nc(CCCO)nn32)cc1 (centres undefined)
→ nt, -0.8, 3.4
> C#CCOCCOCCOCCNc1nc(N2CCN(C(=O)CCCCCCCCCCNC(=O)[C@H](CCCN=C(N)N)n3cc(C[C@@H](C)CC)nn3)CC2)nc(N2CCN(C(=O)CCCCCCCCCCNC(=O)[C@@H]([C@H](C)CC)n3cc(CCCCCN)nn3)CC2)n1
→ nt, -0.1, 106.9*
> COc1ccc(C(=O)N/N=C(\C)c2ccc3c(c2)C2C=CCC2C(c2ccccc2)N3)cc1 (centres undefined)
→ nt, 0.4, -1.4
> CCN(CC)c1ccc(/C=N/NC(=O)OC)c(O)c1
→ nt, -2.3, -10.3
> C/C(CCc1oc2ccccc2c1-c1ccc(C)o1)=N/O
→ nt, -0.4, -6.7
> CCCCNC(=O)Oc1c(Br)cc2sc(=O)oc2c1Br
→ nt, 1.6, -9.8
> O=C(Nc1ccc(Cl)cc1)c1nc[nH]c1C(=O)NCCCNC(=O)c1[nH]cnc1C(=O)Nc1ccc(Cl)cc1
→ nt, 12.9*, 36.7
> C/C(CC(=O)Nc1ccc(OCc2ccccc2)cc1)=N\NC(=O)C(=O)Nc1ccccc1C
→ nt, -3.5, 1.8
> O=C(Nc1ccc(Cl)cc1)c1nc[nH]c1C(=O)NCCN(CCNC(=O)c1[nH]cnc1C(=O)Nc1ccc(Cl)cc1)CCNC(=O)c1[nH]cnc1C(=O)Nc1ccc(Cl)cc1
→ nt, 0.2, 103.6*

# (cont.)
# Each structure is followed by: T cruzi inh, A1 inh, Beta cell apopt
> Cc1cccc(/C=C2/S/C(=N/N=C3\CC4CCC3(C)C4(C)C)NC2=O)c1 (centres undefined)
→ nt, 0.1, 6.1
> Cc1cc(/C=N/NC(=O)CC2(C)OCCO2)c(C)n1-c1ccc(Cl)c(Cl)c1
→ nt, 0.0, -8.9
> C#CCOCCOCCOCCNc1nc(N2CCN(C(=O)CCCCCCCCCCNC(=O)[C@H](CCCCN)n3cc(CCO)nn3)CC2)nc(N2CCN(C(=O)CCCCCCCCCCNC(=O)[C@H](CCCCN)n3cc(CCO)nn3)CC2)n1
→ nt, 2.5, -3.1
> CCOC(=O)CNC(=O)c1cc(C)oc1C
→ nt, ?, -0.6
> O=C(O)C1=CC(=C(c2ccc(O)c(C(=O)O)c2)c2ccc(O)c(C(=O)O)c2)C=CC1=O
→ nt, 0.6, -0.4
> C/C(=N/NC(=O)c1cn(-c2cccc(C)n2)cn1)c1ccc(C)cc1
→ nt, 0.3, 0.9
> Cc1ccc(OS(=O)(=O)c2ccccc2)c(/C=N/N=C2\NC(=O)C(C)S2)c1 (centres undefined)
→ nt, -0.3, 3.5
> C=C(NC(=O)C(=C)NC(=O)c1csc(C2=NC3c4csc(n4)C4NC(=O)c5csc(n5)C([C@@](C)(O)C(C)O)NC(=O)C5CSC(=N5)/C(=C\C)NC(=O)C(C(C)O)NC(=O)c5csc(n5)[C@]3(CC2)NC(=O)C(C)NC(=O)C(=C)NC(=O)C(C)NC(=O)C(C(C)CC)NC2C=Cc3c(C(C)O)cc(nc3C2O)C(=O)OC4C)n1)C(N)=O (some centres undefined)
→ nt, 0.3, -8.8
> CO/N=C(/CS(=O)c1ccc(Br)cc1)c1ccc(OC)cc1 (centres undefined)
→ nt, -0.8, -8.1
> C[C@@H]1CCCCCCCCC(=O)OCCN[C@H](C)CCCCCCCCC(=O)OCCN[C@H](C)CCCCCCCCC(=O)OCCN1
→ nt, -0.2, 4.8
> C#CCOCCOCCOCCNc1nc(N2CCN(C(=O)CCCCCCCCCCNC(=O)[C@@H](CCSC)n3cc(CCO)nn3)CC2)nc(N2CCN(C(=O)CCCCCCCCCCNC(=O)[C@H]([C@@H](C)CC)n3cc(CCCCCN)nn3)CC2)n1
→ nt, -0.8, 98.8*
> CN=c1scc(C)n1/N=C/c1ccc(O)cc1
→ nt, -3.5, 9.5
> CC(=O)Cc1nnn(-c2cc(C)on2)n1
→ nt, -0.4, -4.6
> Cc1ccc(S(=O)(=O)N(CC(=O)N/N=C/c2cccc(C)c2)c2cccc3cccnc23)cc1
→ nt, -0.6, 1.0
> C#CCOCCOCCOCCNc1nc(N2CCN(C(=O)CCCCCCCCCCNC(=O)Cn3cc(CCCCCN)nn3)CC2)nc(N2CCN(C(=O)CCCCCCCCCCNC(=O)[C@H](CO)n3cc(CCCSC)nn3)CC2)n1
→ nt, 0.5, 26.5
> COc1ccc(-c2cc(OC(=O)c3ccc(F)cc3)c3c(C)oc(C)c3c(=O)c2)cc1
→ nt, -0.5, -6.5
> COc1ccc(/C=N/NC(=O)CSc2nnc(C)n2-c2ccccc2)c(OC)c1OC
→ nt, -0.6, 1.3
> C#CCOCCOCCOCCNc1nc(N2CCN(C(=O)CCCCCCCCCCNC(=O)Cn3cc(C[C@@H](C)O)nn3)CC2)nc(N2CCN(C(=O)CCCCCCCCCCNC(=O)[C@@H](CCSC)n3cc(CCO)nn3)CC2)n1
→ nt, 2.2, 26.8
> C#CCOCCOCCOCCNc1nc(N2CCN(C(=O)CCCCCCCCCCNC(=O)Cn3cc(C[C@@H](C)O)nn3)CC2)nc(N2CCN(C(=O)CCCCCCCCCCNC(=O)[C@H](CCCCN)n3cc(C[C@@H](C)CC)nn3)CC2)n1
→ nt, 0.4, 62.8
> Brc1ccc(N=C/C=C/C=C/Nc2ccc(Br)cc2)cc1
→ nt, -0.5, 0.4
> COCCCNC(=O)C(=O)N/N=C/c1ccc(OCC(=O)Nc2cccc(Cl)c2C)c(OC)c1
→ nt, -0.1, -1.6
> CS(=O)(=O)NCc1ccccc1Br
→ nt, 0.5, 1.4
> C#CCOCCOCCOCCNc1nc(N2CCN(C(=O)CCCCCCCCCCNC(=O)Cn3cc(CCCCCN)nn3)CC2)nc(N2CCN(C(=O)CCCCCCCCCCNC(=O)[C@H]([C@@H](C)CC)n3cc(CCCCCN)nn3)CC2)n1
→ nt, ?, 38.8
> Cc1sc2c(c1C)CN(C1CC(C)(C)NC(C)(C)C1)CN2C(=O)c1ccco1
→ nt, -3.1, -0.7
> C=CCn1c(COc2ccccc2)nnc1SC(C)C(=O)N/N=C/c1cc(Cl)ccc1O (centres undefined)
→ nt, 2.0, 26.2
